Screening results as filed in PubChem BioAssay.
BJeLR viability = BJeLR cell viability loss; BJeLR (HRASV12) viability, CellTiter-Glo ATP luminescence, 48 h; reference of the scale not given here; inhibition, % (concentration not given with the values); actives 0.17% (n = 300,000); AID 1554;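 active = replicate mean above 50%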;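 also: 50 nL library stock added to about 25 µL; numbers are from one replicate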
Sa ugtP lethal = growth inhibition of S. aureus ugtP deletion strain; S. aureus RN4220 ugtP deletion, OD600 growth, 16 h; some inactives read as strong as hits; growth inhibition, % (no concentration beside the values); actives 0.54% (n = 330,000); AID 1259309;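 active = z-score under -3 and OD600 up to 0.15 on both plates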;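 also: plate controls were untreated wells for no effect and antibiotic for full effect; wells of about 80 µL received 100 nL stock; the first replicate is given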
Sa RN4220 lethal = S. aureus RN4220 growth inhibition; actives 0.33% (n = 330,000); AID 1259311; OD600, 16 h; inhibition, % (concentration not given with the values);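 active = z-score of -3 or lower and OD600 up to 0.18 on both plates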;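 also: plate controls were untreated cells for no effect and reference antibiotic for full effect; stock transfer was 100 nL into about 80 µL; one replicate is shown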
Mtb hypoxia inh = inhibitors of hypoxia-regulated fluorescent reporter in Mycobacterium tuberculosis | fluorescence inhibition, % (test concentration not listed) | actives 0.1% (n = 300,000) | M. tuberculosis hypoxia-regulated fluorescent reporter, fluorescence;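 active = 35 to 45% if threefold the growth effect, above 45% if 1.5-fold the growth effect; inactive = the rest, general growth blockers included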;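 also: wells of about 50 µL received 100 nL stock; 0% = vehicle wells and 100% = reference inhibitor wells; whole bacteria with a GFP reporter of the hypoxia response; strong numbers were not always called active; many hits fall short of the cut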
Bead autofluor = counter-screen for toxin protease inhibitors: compound fluorescence; compound autofluorescence counterscreen, microsphere flow cytometry; stronger effect = higher value; fluorescence intensity (no concentration beside the values); actives 3.1% (n = 360,000); AID 624483;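 active = at least 3 SD above the mean of all compounds, about 16000 in these data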;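 also: 100 nL of 1 mM stock went into each well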
PrP UTR inh = suppresses PrP 5' UTR mRNA reporter expression | cell-based PrP 5' UTR mRNA reporter, plate reader | inhibition, % (test concentration not listed) | actives 0.35% (n = 340,000) | AID 488862;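 active = every replicate at 50% or more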;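 also: 0 = median of the neutral control wells; tested in H4 reporter cells; numbers are from one replicate; inactives centre near -14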
Mtb hypoxia inh growth = second read-out of Mtb hypoxia inh, no call of its own (marks repeat the call); growth inhibition, %; measured here: M. tuberculosis growth (absorbance);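 0% = vehicle and 100% = reference antibiotic; read after six days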
The depositor's hits bear a star.

COCC(C)n1c(SCC(=O)NC(=O)NCc2ccccc2)nc2ccccc2c1=O (stereo not drawn) was read as Sa ugtP lethal 7, Sa RN4220 lethal 1.4, Mtb hypoxia inh 6, Bead autofluor 3798, PrP UTR inh 7 and Mtb hypoxia inh growth 6.
For CC(NC(=O)C12CC3CC(C1)CC(n1cncn1)(C3)C2)C12CC3CC(CC(C3)C1)C2 (stereo not drawn) the results were BJeLR viability 9, Sa ugtP lethal -3, Sa RN4220 lethal 2.7, Bead autofluor 2516 and PrP UTR inh -3.
Screening COCCNC(=O)CN(C(=O)CCC(=O)Nc1nccs1)c1ccc2c(c1)OCO2 returned BJeLR viability 0, Sa ugtP lethal 6, Sa RN4220 lethal 3.5, Mtb hypoxia inh 10, Bead autofluor 4190, PrP UTR inh 3 and Mtb hypoxia inh growth -4.
`O=C(/C=C/c1ccc(OCCCF)cc1)Nc1ccnc(-c2ccncc2)n1` gave BJeLR viability 13, Sa ugtP lethal -8, Sa RN4220 lethal 2.0, Mtb hypoxia inh 0, Bead autofluor 4664, PrP UTR inh -25 and Mtb hypoxia inh growth 13.
Cc1cccc(NC(=O)CCc2nnc3ccc(NCc4ccco4)nn23)n1 was read as BJeLR viability 10, Sa ugtP lethal -6, Sa RN4220 lethal 1.3, Mtb hypoxia inh -9, Bead autofluor 5468, PrP UTR inh -10 and Mtb hypoxia inh growth -5.
For Cc1ccc(NC(=O)ON=Cc2ccc(Br)cc2)cc1 the results were Sa ugtP lethal 5, Sa RN4220 lethal 1.5, Mtb hypoxia inh -3 and Mtb hypoxia inh growth 13.
`Cc1ccc(NC2CCCN(C(=O)c3ccccn3)C2)cc1C` (stereo not drawn) gave BJeLR viability -2, Sa ugtP lethal 3, Sa RN4220 lethal 2.8, Mtb hypoxia inh 1, Bead autofluor 5149, PrP UTR inh -10 and Mtb hypoxia inh growth 2.
Screening COc1ccccc1/C=C/C(=O)NNC(=O)c1cccs1 returned BJeLR viability -1, Sa ugtP lethal 24, Sa RN4220 lethal 9.8, Mtb hypoxia inh -6, Bead autofluor 4749, PrP UTR inh -36 and Mtb hypoxia inh growth -2.
Screening O=C(NCCc1nc2ccccc2[nH]1)C1CCC(=O)N(CCc2cccc(F)c2)C1 (stereo not drawn) returned BJeLR viability 1, Sa ugtP lethal 6, Sa RN4220 lethal 3.3, Mtb hypoxia inh -2, Bead autofluor 5080, PrP UTR inh -24 and Mtb hypoxia inh growth -3.
Screening CCOC(=O)COn1c(-c2cccc(Cl)c2)nc2ccc([N+](=O)[O-])cc21 returned BJeLR viability 1, Sa ugtP lethal -10, Sa RN4220 lethal -4.8, Bead autofluor 2178 and PrP UTR inh -44.
Screening COC(=O)[C@H](Cc1ccccc1)NC(=O)[C@@H]1C[C@H]1[C@@H](NC(=O)OCc1ccccc1)c1ccccc1 returned BJeLR viability -4, Bead autofluor 3935 and PrP UTR inh -13.
For CCN(CC)CCCN1C=C2C(=O)C(C)(OC(=O)CCC(=O)OC)C(=O)C=C2C=C1C1CC1 (stereo not drawn) the results were BJeLR viability 6, Sa ugtP lethal 3, Sa RN4220 lethal 2.6, Mtb hypoxia inh 5, Bead autofluor 3744, PrP UTR inh -17 and Mtb hypoxia inh growth 8.
`CC(C)(C)OC(=O)NCCCCC(NC(=O)c1[nH]cnc1C(=O)NC(Cc1ccccc1)C(=O)OCc1ccccc1)C(=O)OC(C)(C)C` (stereo not drawn) gave Sa ugtP lethal -2, Sa RN4220 lethal 2.2, Mtb hypoxia inh -4 and Mtb hypoxia inh growth 10.
O=C(CNc1ccccc1)NNC1=NCCC1 was read as BJeLR viability -8, Sa ugtP lethal 5, Sa RN4220 lethal 7.0, Mtb hypoxia inh 1, Bead autofluor 2345, PrP UTR inh 1 and Mtb hypoxia inh growth -6.
COCCOC(=O)C1=C(C)N(Cc2ccccc2)C(=O)NC1c1cccc(OC)c1OC (stereo not drawn) was read as BJeLR viability 0, Sa ugtP lethal 1, Sa RN4220 lethal 5.0, Mtb hypoxia inh 0, Bead autofluor 8740, PrP UTR inh -18 and Mtb hypoxia inh growth 4.
Screening CN(Cc1ccc([N+](=O)[O-])cc1)c1ccccc1 returned Sa ugtP lethal -4, Sa RN4220 lethal -4.4, Mtb hypoxia inh 9, Bead autofluor 4016, PrP UTR inh -20 and Mtb hypoxia inh growth 2.
O=C(NNC(=O)C(c1ccccc1)c1ccccc1)c1cccs1 was read as BJeLR viability -5, Sa ugtP lethal 10, Sa RN4220 lethal 4.7, Mtb hypoxia inh 6, Bead autofluor 3878, PrP UTR inh -10 and Mtb hypoxia inh growth 1.
Screening CC1CCCC(C)N1CCCNC(=O)c1cc2c(s1)-c1ccccc1OC2 (stereo not drawn) returned BJeLR viability 12, Bead autofluor 3992 and PrP UTR inh -19.
`CC(Sc1ncn[nH]1)C(=O)c1c(N)n(C)c(=O)n(C)c1=O` (stereo not drawn) gave Sa ugtP lethal 11, Sa RN4220 lethal 6.1, Mtb hypoxia inh 9, Bead autofluor 2902, PrP UTR inh -21 and Mtb hypoxia inh growth 1.
`CN1C(=O)c2ccccc2C(C(=O)O)C1c1cn(C)c2ccccc12` (stereo not drawn) gave BJeLR viability 1, Sa ugtP lethal 1, Sa RN4220 lethal -0.1, Bead autofluor 4433 and PrP UTR inh -25.

Next part; it opens with the 5 that closed the last part.
Screening CN(Cc1ccc([N+](=O)[O-])cc1)c1ccccc1 returned Sa ugtP lethal -4, Sa RN4220 lethal -4.4, Mtb hypoxia inh 9, Bead autofluor 4016, PrP UTR inh -20 and Mtb hypoxia inh growth 2.
O=C(NNC(=O)C(c1ccccc1)c1ccccc1)c1cccs1 was read as BJeLR viability -5, Sa ugtP lethal 10, Sa RN4220 lethal 4.7, Mtb hypoxia inh 6, Bead autofluor 3878, PrP UTR inh -10 and Mtb hypoxia inh growth 1.
Screening CC1CCCC(C)N1CCCNC(=O)c1cc2c(s1)-c1ccccc1OC2 (stereo not drawn) returned BJeLR viability 12, Bead autofluor 3992 and PrP UTR inh -19.
`CC(Sc1ncn[nH]1)C(=O)c1c(N)n(C)c(=O)n(C)c1=O` (stereo not drawn) gave Sa ugtP lethal 11, Sa RN4220 lethal 6.1, Mtb hypoxia inh 9, Bead autofluor 2902, PrP UTR inh -21 and Mtb hypoxia inh growth 1.
`CN1C(=O)c2ccccc2C(C(=O)O)C1c1cn(C)c2ccccc12` (stereo not drawn) gave BJeLR viability 1, Sa ugtP lethal 1, Sa RN4220 lethal -0.1, Bead autofluor 4433 and PrP UTR inh -25.
For OCCCn1c(-c2ccccc2)n[nH]c1=S the results were BJeLR viability 5, Sa ugtP lethal 3, Sa RN4220 lethal 5.6, Mtb hypoxia inh 15, Bead autofluor 3812, PrP UTR inh -41 and Mtb hypoxia inh growth 12.
Screening O=C1c2ccccc2CN1CCNC(=S)NC1CCCCC1 returned Sa ugtP lethal 6, Sa RN4220 lethal 15, Mtb hypoxia inh 13, Bead autofluor 4321, PrP UTR inh 68* and Mtb hypoxia inh growth 10.
`CCN1C(=O)C(=O)N(CC(=O)NC(C)CCc2ccccc2)C1=O` (stereo not drawn) gave Sa ugtP lethal -5, Sa RN4220 lethal -5.3, Mtb hypoxia inh -7, Bead autofluor 3959, PrP UTR inh -6 and Mtb hypoxia inh growth -2.
COCc1ccc(C(=O)N2CCCC(Nc3ccc(C(C)C)cc3)C2)o1 (stereo not drawn) was read as BJeLR viability -11, Sa ugtP lethal 3, Sa RN4220 lethal 2.9, Mtb hypoxia inh 1, Bead autofluor 5441, PrP UTR inh -11 and Mtb hypoxia inh growth 4.
Cc1ccc(N2C(=O)c3cccc([N+](=O)[O-])c3C2=O)cc1C was read as BJeLR viability -4, Sa ugtP lethal 2, Sa RN4220 lethal -1.4, Mtb hypoxia inh 12, Bead autofluor 3576, PrP UTR inh -15 and Mtb hypoxia inh growth -3.
CCOC1OC(C(=O)O)=CC(c2ccc3c(c2)OCO3)C1CCCO (stereo not drawn) was read as Sa ugtP lethal 0, Sa RN4220 lethal 3.2, Mtb hypoxia inh 19 and Mtb hypoxia inh growth 10.
Screening Cc1csc2nc(CN3CCN(CC(=O)N(C)C)CC3)cc(=O)n12 returned BJeLR viability -11, Sa ugtP lethal -1, Sa RN4220 lethal -0.1, Mtb hypoxia inh -13, Bead autofluor 3696, PrP UTR inh -7 and Mtb hypoxia inh growth 7.
`Oc1ccc(Br)cc1C=NNC(=S)NCCc1ccccc1` gave Sa ugtP lethal 8, Sa RN4220 lethal -4.5, Mtb hypoxia inh 0 and Mtb hypoxia inh growth 5.
For CCOc1ccc(N=CC2=C(O)CC(c3ccco3)CC2=O)cc1 (stereo not drawn) the results were BJeLR viability -7, Bead autofluor 7909 and PrP UTR inh -28.
CC1(C)Cc2ccccc2C(c2cc3ccccc3oc2=O)=N1 was read as BJeLR viability 3, Sa ugtP lethal 0, Sa RN4220 lethal 4.5, Mtb hypoxia inh 6, Bead autofluor 2896, PrP UTR inh -12 and Mtb hypoxia inh growth 10.
`Cc1c(C(c2cc(O)ccc2Cl)c2c(C)n(C)n(-c3ccccc3)c2=O)c(=O)n(-c2ccccc2)n1C` gave BJeLR viability -10, Bead autofluor 2712 and PrP UTR inh -17.
Screening CCOC(=O)c1cnc2c(C(=O)OCC)cnn2c1N returned BJeLR viability 2, Sa ugtP lethal 13, Sa RN4220 lethal 5.4, Mtb hypoxia inh -10, Bead autofluor 4174 and Mtb hypoxia inh growth 0.
CCNc1nc(NC(C)C)nc(OCC)n1 was read as BJeLR viability -9, Sa ugtP lethal 4, Sa RN4220 lethal 2.7, Mtb hypoxia inh 0, Bead autofluor 3141, PrP UTR inh -15 and Mtb hypoxia inh growth 3.
For COc1ccc(OC)c(N2Cc3ccccc3C2=N)c1 the results were BJeLR viability -5, Sa ugtP lethal 11, Sa RN4220 lethal 2.9, Mtb hypoxia inh 11, Bead autofluor 3359, PrP UTR inh -16 and Mtb hypoxia inh growth 18.
Cc1cc(Nc2ccccc2)c2c([N+](=O)[O-])c(C)cc(C)c2n1 was read as BJeLR viability 3, Sa ugtP lethal 41, Sa RN4220 lethal -3.6, Bead autofluor 2800 and PrP UTR inh -8.
Screening CCOC(=O)c1oc2nc3c(cc2c1N)CCCC3 returned BJeLR viability 1, Sa ugtP lethal 3, Sa RN4220 lethal 8.6, Mtb hypoxia inh 8 and Mtb hypoxia inh growth 1.
For COC(=O)C1C(c2ccc(Br)cc2)Nc2nnc(C(F)(F)F)n2C1(C)O (stereo not drawn) the results were BJeLR viability 8, Sa ugtP lethal 0, Sa RN4220 lethal 5.0, Mtb hypoxia inh -9, Bead autofluor 3362, PrP UTR inh 3 and Mtb hypoxia inh growth -10.
For Clc1ccc2c(NCCNC3CCCCC3)ccnc2c1 the results were Sa ugtP lethal 3, Sa RN4220 lethal -2.6, Mtb hypoxia inh 25, Bead autofluor 2992, PrP UTR inh -38 and Mtb hypoxia inh growth 13.
CNS(=O)(=O)c1cnccc1N1CCN(c2cccc(C)c2)CC1 was read as BJeLR viability 2, Sa ugtP lethal 1, Sa RN4220 lethal 0.1, Bead autofluor 2156 and PrP UTR inh -8.
For CC(C)(CO)CNC(=O)c1ccc2nc(Cc3cccc(Cl)c3)oc2c1 the results were BJeLR viability 3, Sa ugtP lethal 10, Sa RN4220 lethal 1.5, Mtb hypoxia inh 0, Bead autofluor 4178, PrP UTR inh -19 and Mtb hypoxia inh growth -4.
For CC1CCCCN1C(=O)c1ccc(C(=O)Nc2ccc(F)cc2)cc1 (stereo not drawn) the results were Sa ugtP lethal 2, Sa RN4220 lethal 7.0, Mtb hypoxia inh 12, Bead autofluor 3017, PrP UTR inh -6 and Mtb hypoxia inh growth 10.
`CCc1ccc(NC(=O)NC2CCCCCCC2)cc1` gave Sa ugtP lethal -14, Sa RN4220 lethal -2.1, Bead autofluor 6495 and PrP UTR inh -97.
CN1CCN(Cc2nc3ccccc3c(=O)n2Cc2nc(-c3cccc([N+](=O)[O-])c3)cs2)CC1 was read as Sa ugtP lethal 4, Sa RN4220 lethal 1.4, Mtb hypoxia inh -1, Bead autofluor 4715, PrP UTR inh -23 and Mtb hypoxia inh growth 2.
